Source: PubChem (National Center for Advancing Translational Sciences (NCATS))
SARS PLpro yeast = inhibitors of SARS-CoV papain-like protease in yeast; 0.19% of 330,000 active; S. cerevisiae expressing SARS-CoV PLpro, growth rescue; control for the full effect not named in the record; AID 485353; Potency, µM (doses to about 32.9 µM), for inactives: at the top dose activity, positive = growth rescue; active means well fitted rising curve with a large enough effect; inconclusive means small, poorly fitted or top-dose-only effect; inactive means no such curve, though single readings can be large or run the other way; also: 0% is about no effect; nearly all actives have a fitted effect of over 55% in size; growth read by luminescence after 48 h
NS1 function inh = inhibitors of influenza NS1 protein function; S. cerevisiae slowed by influenza A NS1, growth recovery by OD600; Potency, µM (highest dose often 46.1 µM), for inactives: at the top dose activity, positive = more growth; 0.4% of 270,000 active; AID 2326; active means well fitted rising curve with a large enough effect; inconclusive means small, poorly fitted or top-dose-only effect; inactive means no such curve, though single readings can be large or run the other way; also: nearly all actives have a fitted effect of over 50% in size
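OD600 was taken as the measure of yeast growth restored by compound in an NS1-expressing S. cerevisiae strain. Cells had been washed out of glucose medium and diluted 1:100 into galactose -URA medium, pH 6.0.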
RE007 growth inh = less growth of the S. pombe RE007 Vpr strain. S. pombe RE007 Vpr strain, BacTiter-Glo ATP luminescence, 24 h; control for the full effect not named in the record. Potency, µM (series often up to 92.2 µM), inactives show at the top dose activity change, negative = less growth. 0.21% of 360,000 active. AID 651644; active = well fitted falling curve with a large enough effect; inconclusive = small, poorly fitted or top-dose-only effect; inactive = no such curve, though single readings can be large or run the other way;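 also: % is scaled to controls: 0 for no effect and ±100 for the full control effect; nearly all actives have a fitted effect of over 50% in size; the assay follows cell death caused by Vpr and the record does not say whether a fall means rescue or toxicity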
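Fission yeast RE007 carrying one integrated HIV-1 vpr copy, seeded at OD 0.01 in PMG+AL medium with 23 nL pinned compound. Grown 24 h at 30 degrees; viability read by BacTiter-Glo luminescence after 5 min.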
LASV entry inh = Lassa virus entry inhibition; Lassa virus pseudotype entry inhibition, cell reporter; control for the full effect not named in the record; 1.2% of 300,000 active; AID 540256; Potency, µM (doses to about 37.9 µM), without a hit: top-dose activity change, negative = inhibition, actives largely listed as inhibitors; active means well fitted inhibition curve with a large enough effect; inconclusive means small, poorly fitted or top-dose-only effect, or effect the other way; inactive means flat fitted curve, though single readings scatter; tested in HEK293 cells; also: % is scaled to controls: 0 for no effect and ±100 for the full control effect; nearly all actives have a fitted effect of over 50% in size; luciferase read-out
MARV entry inh = Marburg virus entry inhibition; Marburg virus pseudotyped entry inhibition, cell reporter; control for the full effect not named in the record; about a third of the inactives were read at about 46 µM; AID 540276; 1.8% of 300,000 active; Potency, µM (series often up to 37.8 µM), without a hit: at the top dose activity change, negative = inhibition, hits mostly inhibitors; active = well fitted inhibition curve with a large enough effect; inconclusive = small, poorly fitted or top-dose-only effect, or effect the other way; inactive = flat fitted curve, though single readings scatter; tested in HEK293 cells; about a fifth of its hits are not listed in these tables; also: % is scaled to controls: 0 for no effect and ±100 for the full control effect; luciferase read-out
Cruzain noTriton = blocks cruzain activity in detergent-free assay; P25779; purified cruzain, Z-FR-AMC fluorescence, no detergent; Potency, µM, for inactives: max response, negative = inhibition, actives largely listed as inhibitors; 2.3% of 200,000 active; AID 1476;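 also: plate controls were enzyme without inhibitor for no effect and buffer without enzyme for full effect; nearly all actives have a fitted effect of over 40% in size; top concentration of the series not given in the record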
Target sequence (P25779 123-467 limits assumed): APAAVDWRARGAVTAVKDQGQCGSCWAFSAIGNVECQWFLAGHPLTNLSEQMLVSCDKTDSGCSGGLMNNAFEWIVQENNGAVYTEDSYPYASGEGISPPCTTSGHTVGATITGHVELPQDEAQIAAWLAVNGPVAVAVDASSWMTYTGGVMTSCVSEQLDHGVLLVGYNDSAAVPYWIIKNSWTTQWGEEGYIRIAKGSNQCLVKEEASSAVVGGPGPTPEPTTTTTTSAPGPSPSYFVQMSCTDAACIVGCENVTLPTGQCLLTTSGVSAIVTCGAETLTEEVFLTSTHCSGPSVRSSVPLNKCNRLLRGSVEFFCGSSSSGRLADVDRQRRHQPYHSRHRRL
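Purified cruzain at 1.5 nM, pre-incubated 15 min with compound at room temperature in 100 mM sodium acetate pH 5.5, 5 mM DTT, 0.00005% Triton X-100. Reaction started with 2 uM Z-FR-AMC; AMC fluorescence increase over 60 s gives rate.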
StopGo reporter = lowers the luciferase signal of an FMDV 2A StopGo reporter; human cells with a luciferase reporter of 2A StopGo recoding; control for the full effect not named in the record; Potency, µM (highest dose often 57.9 µM), for the others: at the highest dose signal change, negative = less light; 1.2% of 410,000 active; active = well fitted falling curve with a large enough effect; inconclusive = small, poorly fitted or top-dose-only effect; inactive = no such curve, though single readings can be large or run the other way; tested in HEK293T cells; also: % is scaled to controls: 0 for no effect and ±100 for the full control effect; nearly all actives have a fitted effect of over 45% in size; luciferase light after 4 h
Cruzain Triton = inhibitors of Trypanosoma cruzi cruzain with detergent | P25779 | purified cruzain, Z-FR-AMC fluorescence, 0.01% Triton | Potency, µM, for the others: max response, negative = inhibition, most hits filed as inhibitors | 0.43% of 200,000 active;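 also: plate controls were neutral wells for no effect and buffer without enzyme for full effect; nearly all actives have a fitted effect of over 40% in size; top concentration of the series not given in the record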
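Enzyme 1.5 nM, Z-FR-AMC 2 uM, NaOAc 100 mM pH 5.5, DTT 5 mM, Triton X-100 0.01%; 15 min RT compound preincubation; kinetic ex360/em450, 60 s delta.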
Numbers without * were called inactive; ? = inconclusive; . = no result given; [ ] = another dose, or the depositor's remark. Unless noted, calls follow the shape of the dose curve; as a rule, active = well fitted curve in the direction sought with a large enough effect; inconclusive = small, poorly fitted or top-dose-only effect, or another doubt; inactive = no such curve, though single readings can be large; an effect the other way counts as inactive or inconclusive. Potency is read from the fitted curve at half-maximal effect.

The line under a structure holds: SARS PLpro yeast | NS1 function inh | RE007 growth inh | LASV entry inh | MARV entry inh | Cruzain noTriton | StopGo reporter | Cruzain Triton
CCOC(=O)N1CCN(C(=O)Cn2cc3c(n2)CCCC3)CC1
→ 3% | 2% | 10% | -3% | 2% | -2% | -17% | 4.1%
COC(=O)c1cc(C)sc1NC(=O)CCCC(=O)O
→ -3% | -2%[9.22 µM] | 8% | -7% | 5% | -9% | 1% | -0.5%
CC1C(c2ccc3c(c2)OCO3)c2cc3c(cc2OC1N1CCOCC1)OCO3 (stereo not given)
→ . | . | 43% | -20% | -30% | . | -27% | .
CCOc1ccc(CNCCc2ccc(S(N)(=O)=O)cc2)cc1
→ 0% | 1% | -9% | -10% | ? | . | -7% | .
CCC(OC(=O)CCc1nc2ccccc2[nH]c1=O)C(=O)c1ccccc1 (stereo not given)
→ 9% | -11% | -14% | ? | -29% | 2% | ? | -4.8%
C/C=C\C=C/C(=O)Nc1cccc(C2=NOC3(C2)C[C@H](C(N)=O)N(C(=O)CC)C3)c1 (stereo not given in full)
→ 2% | 2% | -9% | . | . | . | -9% | .
COc1ccc(CCNC(=O)CSc2nnc(NC(C)=O)s2)cc1OC
→ 11% | 14% | -5% | -1% | -1% | -13% | -18% | -1.7%
COC(=O)c1cc(S(=O)(=O)N2CCC(c3ccccc3)C2)c[nH]1 (stereo not given)
→ 1% | -12% | -13% | . | . | . | ? | .
CCC(C)c1ccc(S(=O)(=O)N2CCN(S(=O)(=O)c3ccc(NC(C)=O)cc3)CC2)cc1 (stereo not given)
→ 11% | 14% | 27% | . | ? | . | -11% | .
CCc1ccc(C(=O)COC(=O)c2cccnc2Cl)cc1
→ -1% | -9% | -6% | ? | 18%[46.1 µM] | . | 4% | .
CC(C)(C)n1nnnc1C(c1cccnc1)N1CCN(c2ccccn2)CC1 (stereo not given)
→ 0% | 2% | -15% | . | . | . | -2% | .
COCCCN1C(=O)c2ccc(C(=O)O)cc2C1=O
→ 6% | 3% | -4% | 3% | 6% | 3% | 9% | -9.0%
CC(C)Nc1oc(Cc2cccc3ccccc23)nc1C#N
→ -17% | -91% | ? | 10% | ? | -3% | ? | -5.3%
O=C(c1ccc(COc2ccccc2Cl)o1)N1CCCC1
→ -10% | -135% | -11% | 3% | -12%[46.1 µM] | 5% | -9% | 1.6%
O=C(Cc1ccccc1[N+](=O)[O-])N1CCN(c2ccc(F)cc2)CC1
→ 0% | . | 13% | 14%[46.1 µM] | 5%[46.1 µM] | . | -16% | .
COC(C(=O)NC(C(C)C)C(C)C)c1ccccc1 (stereo not given)
→ 10% | -5% | 0% | -4% | -6% | -11% | -16% | -1.0%
CCCCN1CN(Cc2ccco2)CNC1=S
→ 23% | 0% | -10% | ? | 19% | -9% | 0% | 0.4%
COc1ccc(NC(=O)c2cnc(C)cn2)cc1-n1cnnn1
→ 5% | 0% | 3% | 0% | -1% | -9% | 17% | 2.1%
CC(C(=O)Nc1c2c(cc3c1CCC3)CCC2)N1CCCC1 (stereo not given)
→ -6% | 15% | 17% | ? | ? | 2% | -9% | -1.9%
CC(=O)Nc1ccc(NC(=O)Cn2cc3c(n2)CCC(C)C3)cc1 (stereo not given)
→ 27% | -2% | . | . | . | -13% | . | -1.5%
CC(=O)N1CCc2cc(S(=O)(=O)NC(C(=O)Nc3ccc4c(c3)OCCO4)C(C)C)ccc21 (stereo not given)
→ 4% | 16% | -1% | ? | 27% | 13% | -5% | -2.6%
COc1ccc(OC)c(/C=N/NC(=O)c2cc(-c3ccc(C)o3)nc3ccccc23)c1
→ -5% | 18% | 4% | -16% | ? | -16% | -24% | -4.4%
CS(=O)(=O)c1ccccc1-c1nc(-c2cccc(Cl)c2)no1
→ -3% | . | 3% | -23% | ? | . | 9% | .
CC(C)CCC(O)(c1ccccc1)C(CN1CCOCC1)c1ccccc1 (stereo not given)
→ -4% | 8% | 14% | -23% | ? | . | ? | .
COC(=O)C(NC(=O)CCc1nnc2ccc(N3CCC(C)CC3)nn12)C(C)C (stereo not given)
→ 2% | 2% | 2% | . | . | . | -10% | .
CCOc1cc(C(N)=O)cc(Cl)c1OCC
→ 14% | 4% | -9% | 0% | 0% | . | 1% | .
NC(=NCCc1ccccc1)NC(=O)c1cc(Cl)ccc1O
→ . | . | 13% | ? | ? | . | 22% | .
CCc1ccccc1Nc1nc(N)nc(COC(=O)CCNS(=O)(=O)c2ccccc2)n1
→ 2% | . | 7% | 10% | ? | . | -16% | .
COc1ccc(S(=O)(=O)N2CCCC2)cc1NC(=O)c1ccccc1F
→ -2% | -2% | 18% | -3% | -13%[46.1 µM] | . | -11% | .
CC(C)Cc1nn2c(=O)cc(COC(=O)c3cccc(NC(=O)c4ccccc4)c3)nc2s1
→ . | . | . | ? | . | -7% | -11% | 0.0%
COc1ccc(S(=O)(=O)N2CCC[C@H]2C(=O)NCc2ccc(Cl)cc2)cc1
→ -1% | -11% | 0% | . | . | . | -6% | .
Cc1onc(-c2ccccc2Cl)c1C(=O)Nc1cccc2cccnc12
→ -10% | -63% | -8% | ? | ? | -15% | ? | -4.5%
S=C(NCc1ccco1)N/N=C/c1cccnc1
→ 1% | 1% | 7% | . | . | . | -6% | .
CCC(C)(C(=O)NC1CCCC1)N(Cc1ccco1)C(=O)c1ccccn1 (stereo not given)
→ 3% | 4% | 15% | 2% | 0% | -2% | -15% | 3.4%
Cc1csc2nc(COC(=O)c3cccc(N(C)C)c3)cc(=O)n12
→ 2% | . | -35% | -10% | -22% | . | -3% | .
CCc1ccccc1N1C(=O)N(Cc2cccc(Cl)c2)c2ccccc2S1(=O)=O
→ . | . | . | -23%[46.1 µM] | . | ? | ? | -0.5%
O=C(COC(=O)C1CCN(S(=O)(=O)c2cccs2)CC1)c1cc2ccccc2o1
→ 2% | 21% | -8% | -3% | -13% | ? | 14% | -8.7%
CC(C)(C)NCCC(O)c1cc(C(F)(F)F)nc2c(C(F)(F)F)cccc12 (stereo not given)
→ . | . | -7% | ? | ? | . | -14% | .
CC(C)CCC1(CCO)C(=O)N=C(N)NC1=O (stereo not given)
→ . | . | -10% | 11% | 5% | . | -12% | .
O=C1c2ccccc2C(=O)N1CCOc1ccccc1Cl
→ 1% | -16% | 5% | . | . | . | 38%[activator] | .
CC(Oc1ccccc1)C(=O)Nc1ccc(C(=O)OCc2cc(=O)n3nc(C4CC4)sc3n2)cc1 (stereo not given)
→ . | . | . | ? | . | ? | 28µM* | -2.6%
COc1cc2c(cc1NC(=O)CSc1nccn1C)oc1ccccc12
→ -37% | -24% | -26% | ? | ? | 8% | 56%[activator] | -11%
CC(C)OCCCNC(=O)CN1C(=O)c2cccnc2Sc2ccccc21
→ . | . | . | -3%[46.1 µM] | . | 4% | -17% | -2.1%
O=C(c1ccccc1Oc1nnnn1-c1ccccc1)N1CCOCC1
→ 7% | 4% | -1% | 8% | 18% | -3% | 0% | 2.6%
COc1ccccc1CNc1nc(=S)[nH]c2cc(OC)c(OC)cc12
→ 1% | 10% | -3% | . | . | . | 57%[activator] | .
O=C(N/N=C/c1ccccc1F)NC12CC3CC(CC(C3)C1)C2
→ -1% | -4% | 1% | 6%[46.1 µM] | -1%[46.1 µM] | . | 22% | .
CC(C)(CNc1ccc(S(=O)(=O)C(F)(F)F)cc1[N+](=O)[O-])N1CCOCC1
→ -1% | -4% | 9% | -3%[46.1 µM] | -19%[46.1 µM] | . | -29% | .
CC1Cc2nc(SCC(=O)Nc3ccc4c(c3)OCO4)n(CCc3ccccc3)c(=O)c2S1 (stereo not given)
→ 24% | ? | -8% | -7% | ? | ? | -15% | -6.1%
CC(CN1CCC(n2nccc2NC(=O)c2ccccc2Cl)CC1)c1ccccc1 (stereo not given)
→ 3% | 1% | 3% | ? | -23% | . | -12% | .
COc1ccccc1N1CCN(S(=O)(=O)CCNC(=O)c2cccc(F)c2)CC1
→ 5% | . | 7% | -12% | 14% | . | -24% | .

Next records follow:
The line under a structure holds: SARS PLpro yeast | NS1 function inh | RE007 growth inh | LASV entry inh | MARV entry inh | Cruzain noTriton | StopGo reporter | Cruzain Triton
CC(=O)Nc1nc(-c2ccccc2)ns1
→ -16% | -10% | 4% | 5% | ? | -4% | 24% | -4.5%
CN(C(=O)COC(=O)c1cccs1)c1c(N)n(Cc2ccccc2)c(=O)[nH]c1=O
→ 2% | . | 0% | -21% | 31% | . | -13% | .
COc1ccc(CN2CCOCC2)cc1
→ 0% | 2% | -2% | -4% | -3% | -4% | 6% | 0.1%
O=C(CN1C(=O)COc2ccc(S(=O)(=O)N3CCOCC3)cc21)NCc1ccco1
→ -1% | 8% | 7% | 7% | 9%[46.1 µM] | . | 1% | .
COc1ccc(NC(=O)Cc2nnc(SCC(=O)NC3CCCCC3C)n2C)cc1 (stereo not given)
→ -4% | 2% | 4% | 12%[46.1 µM] | 10%[46.1 µM] | . | 5% | .
O=[N+]([O-])c1ccc(C2=Nn3cnnc3SC2)cc1
→ 1% | 4% | -6% | 14%[46.1 µM] | -5%[46.1 µM] | . | -25% | .
CN(C)C(=O)NC(Nc1cccc([N+](=O)[O-])c1)C(Cl)(Cl)Cl (stereo not given)
→ 1% | . | 1% | -10% | 2% | . | -18% | .
O=C(c1ccc(Cl)c(S(=O)(=O)NCc2ccco2)c1)N1CCN(c2ccccc2F)CC1
→ 14% | 1% | 0% | ? | ? | 0% | -27% | -2.5%
Cc1ccsc1C(=O)C1CCCN(Cc2cn(C)nc2C)C1 (stereo not given)
→ 0% | 4% | -14% | 3% | -7%[46.1 µM] | . | -2% | .
Fc1ccc(CN2CCN(c3ncccn3)CC2)c(F)c1
→ 0% | 11% | -24% | . | . | . | -2% | .
OCCNc1ncnc2c1nnn2Cc1ccccc1
→ 1% | 1% | 6% | 12% | -11% | . | -4% | .
CCOC(=O)c1c(/N=C/C2=C(O)CCCC2=O)sc2c1CCCC2
→ 0% | -5% | -16% | . | . | . | -3% | .
Cc1c(OCc2nn[nH]n2)ccc2c3c(c(=O)oc12)CCCC3
→ 17% | 0% | 3% | 3% | 15% | -4% | 0% | -13%
